Measles inh: inhibitors of measles virus growth in infected cells. infected Vero cells, GFP fluorescence, 64 h; hits give low values. z-score (concentration not given with the values). 33,000 compounds, 0.1% hits. AID 745;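 active means z-score under -3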;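 further: score is relative to mean and SD of the compound wells of a plate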
* = called active by the depositor.

compound,Measles inh
CC1CCCCC1NS(=O)(=O)c1ccc2c(c1)n(C)c(=O)c(=O)n2C (stereo unspecified),0.25
O=S(=O)(Nc1cccc(-c2cn3ccsc3n2)c1)c1ccc(Cl)cc1,-0.72
CCOC(=O)CSc1nc2ccc(N)cc2s1,0.12
CC1(C)CC(=O)C2=C(C1)c1c(ccc3ccccc13)NC2c1ccc(Br)c([N+](=O)[O-])c1 (stereo unspecified),-0.27
Cc1ccc(NC(=O)C2c3ccccc3C(=O)N3CCc4ccccc4C23)cc1F (stereo unspecified),-0.99
CCCCOc1ccc(C(=O)Nc2ccccc2-c2nc3ccccc3[nH]2)cc1,-0.5
COc1cccc(NC(=O)CCN2CCCC2)c1,1.3
Cc1ccc2c(c1)N(CC(=O)N1CCN(C)CC1)C(=O)CO2,-1.3
COCCN1C(=O)c2ccccc2C(C(=O)NC2CCCc3ccccc32)C1c1c[nH]c2ccccc12 (stereo unspecified),0.9
CCOc1ccc(N2C(=O)CC(NCC(=O)OC)C2=O)cc1 (stereo unspecified),0.17
Brc1ccc(C=Nc2nc3ccccc3n2CCN2CCCCC2)cc1,-0.01
CCOc1ccc(C(=O)Nc2ccc(Br)cn2)cc1,-0.04

A second format for part of the listing above:
COCCN1C(=O)c2ccccc2C(C(=O)NC2CCCc3ccccc32)C1c1c[nH]c2ccccc12 (stereo unspecified)
- Measles inh: 0.9
CCOc1ccc(C(=O)Nc2ccc(Br)cn2)cc1
- Measles inh: -0.04
COc1cccc(NC(=O)CCN2CCCC2)c1
- Measles inh: 1.3
Cc1ccc(NC(=O)C2c3ccccc3C(=O)N3CCc4ccccc4C23)cc1F (stereo unspecified)
- Measles inh: -0.99

Further structures follow:
compound,Measles inh
O=C(Nc1cccc(Cl)c1)c1cc(S(=O)(=O)N2CCc3ccccc3C2)ccc1F,1.5
COc1ccc(-c2cc(C(=O)OCC(=O)c3ccc(OC)c([N+](=O)[O-])c3)c3cc(C)ccc3n2)cc1,0.48
CCCCC1(CC(=O)N2CCOCC2)C(=O)N(c2ccccc2)N(c2ccccc2)C1=O,-1.7
COc1ccc(OCC(=O)N2CCN(C(=O)COc3ccccc3)CC2)cc1,-1.4
O=C(CN1C(=O)CSc2ccccc21)NCc1cccnc1,0.22
CC(NC(=O)C12CC3CC(CC(C3)C1)C2)C12CC3CC(CC(C3)C1)C2 (stereo unspecified),0.23
O=C(c1ccccc1)c1nn2c(nc(=O)c3ccc(Cl)cc32)s1,-0.2
NS(=O)(=O)c1ccc2c(c1)C1C=CCC1C(c1cccc3ccccc13)N2 (stereo unspecified),0.83
Cc1cc2cc(CCNC(=O)Cc3cccc4ccccc34)c(=O)[nH]c2cc1C,0.27
CCCc1cc(-c2oncc2-c2ccccc2)c(O)cc1OC,-2.4
Cc1ccc(-n2c(C=Cc3cn(C)c4ccccc34)nc3ccc(I)cc3c2=O)cc1,-0.2
CCc1ccc(-c2nc3cc(NC(=O)c4ccc(C)c(C)c4)ccc3o2)cc1,-0.57
Cc1ccc(NC(=O)c2ccc(F)c([N+](=O)[O-])c2)cc1Cl,-0.1
O=c1c2c3c(sc2[nH]c(=S)n1-c1ccc(OC(F)F)cc1)CCC3,1.2
COc1ccc(Br)cc1S(=O)(=O)N1CCN(C(c2ccccc2)c2ccccc2)CC1,-1.7
COc1ccc(C2N(C(=O)c3ccccc3)CCN2S(=O)(=O)c2ccc(C)cc2)cc1 (stereo unspecified),0.47
COc1cc(NC(=O)CCCn2cnc([N+](=O)[O-])n2)c(OC)cc1Cl,2.1
COc1cccc(-n2nc(C(=O)O)c3ccccc3c2=O)c1,0.54
Cc1ccc(C(=O)N2CCCc3ccccc32)cc1C,0.01
Cc1ccc(C)n1-c1cccc(C(=O)O)c1,0.23
O=C(O)c1cc(-c2ccccn2)nc2ccc(Br)cc12,1.6
C=CCOc1ccc(/C(O)=C2\C(=O)C(=O)N(Cc3cccnc3)C2c2ccc(F)cc2)cc1C (stereo unspecified),-0.68
Cc1cc(C)c(Cc2c(C)nc3c(C(=O)NCCN4CCOCC4)cnn3c2C)c(C)c1,0.89
COc1ccc(S(=O)(=O)NCC2CCC(C(=O)NCc3ccccc3)CC2)cc1 (stereo unspecified),-1.4
CCC(C)n1c(N)nc2c1c(=O)[nH]c(=O)n2C (stereo unspecified),-0.28
CC(C)Oc1ccc(C(=O)Nc2c3c(nn2-c2ccc(Cl)cc2)CSC3)cc1,-0.28
COc1ccc2c(c1)-c1nc(N=Cc3ccccc3[N+](=O)[O-])sc1CC2,0.77
CCN1CCN(C(=O)c2ccc3c(c2)NC(=O)C(N2CCOCC2)S3)CC1 (stereo unspecified),1.1
Cc1ccc2c(c1)N(C(C)C(=O)NC1CCCC1)C(=O)CO2 (stereo unspecified),1.6
Cc1nc2nc(SCC(=O)NCc3ccccc3)nn2c(C)c1Cc1ccccc1,-0.43
O=C(NCCC1=CCCCC1)C1C2C=CC3(CN(Cc4ccccc4Cl)C(=O)C13)O2 (stereo unspecified),0.39
O=C(CNS(=O)(=O)c1cccs1)NC1CCCC1,1.2
Cc1cc(OCCn2cc(C(=S)N3CCOCC3)c3ccccc32)ccc1Cl,0.11
Cc1ccc2c(c1)N(CCC(=O)NCc1ccccc1)C(=O)CO2,0.14
Cc1nn(-c2ccccn2)c2c1C(=O)CC(C)(C)C2Br (stereo unspecified),-0.59
CC(=O)N1c2ccc(S(=O)(=O)Nc3cc(C)ccn3)cc2CC1C (stereo unspecified),0.13
O=C(Nc1ccc(S(=O)(=O)N2CCc3ccccc32)cc1)c1ccco1,-0.29
CCN(CC)C(=O)Cn1cnc2sc(C(=O)N3CCN(c4ccccc4F)CC3)c(C)c2c1=O,1.1
O=C(O)CN1C(=O)c2ccc(Oc3ccc(Br)cc3)cc2C1=O,-0.29
CCOc1ccccc1C(=O)Nc1ccc(N2CCOCC2)cc1,1.3
Cc1cccc2[nH]c(SCc3ccccc3F)nc12,-0.64
CCOC(=O)c1cnc2c(C)c(Cl)ccc2c1Nc1ccc(N(C)C)cc1,-0.87
CCOC(=O)CC(=O)CSc1nc2c(cc1C#N)CCCC2,-0.11
Cc1ccccc1CN1C(=O)C(=O)c2cc(Cl)ccc21,-0.03
CCn1nccc1C(=O)Nc1nccs1,-0.78
COc1ccc(Nc2ccc(N3C(=O)CCCC3=O)cc2[N+](=O)[O-])c(OC)c1,0.31
NC(=O)C1(N2CCCCC2)CCN(c2ccc(N3C(=O)C4CC=CCC4C3=O)cc2[N+](=O)[O-])CC1 (stereo unspecified),-0.95
COc1ccccc1CNc1ccc2c(c1)nc(C)n2Cc1ccccc1,-1.7
O=C(NCCCN1CCN(c2cccc(Cl)c2)CC1)c1ccc(Cn2c(=O)[nH]c3ccccc3c2=O)cc1,-0.38
O=c1oc2ccccc2c(NC2CCCCCCC2)c1[N+](=O)[O-],-0.81
O=C(c1nn2c(C(F)(F)F)cc(-c3ccco3)nc2c1Br)N1CCCCC1,-0.24
COc1ccc(-n2c(=S)[nH]c3cc(C(=O)N4CCC(C(N)=O)CC4)ccc3c2=O)cc1,0.74
CCOC(=O)C(=O)N1c2ccccc2Sc2ccccc21,-0.9
CCC1C(=O)C(C)(C)C(=O)OC1c1ccc(Br)cc1 (stereo unspecified),1.4
O=C(c1ccco1)c1nnn(Cc2ccccc2)c1-c1ccccc1,0.2
COc1cc2nc(-c3ccc(I)cc3)oc(=O)c2cc1OC,-1.6
CCc1ccc(NS(=O)(=O)c2ccc3[nH]cc(C(=O)N(C)Cc4ccccc4)c(=O)c3c2)cc1,-0.77
CC(C)(C)c1ccc(S(=O)(=O)N2CCN(c3ccc([N+](=O)[O-])cc3)CC2)cc1,-0.2
COc1cccc(C2=NN(C(=O)c3cccc([N+](=O)[O-])c3)C(O)(C(F)(F)F)C2)c1 (stereo unspecified),-0.64
Cn1cc(CC(=O)N2CCC(C(N)=O)CC2)c2ccccc21,0.26

Going on with the list.
compound,Measles inh
CCn1c(C(O)(c2ccccc2)c2ccc(C)cc2)nc2ccccc21 (stereo unspecified),0.02
CCOC(=O)c1ccc(N2C(=O)C3C(c4ccc(Cl)cc4)OC4(C(=O)c5ccccc5C4=O)C3C2=O)cc1 (stereo unspecified),-0.14
CC(=O)N1c2c(cc(Br)cc2S(=O)(=O)N2CCN(c3ccccc3F)CC2)CC1C (stereo unspecified),-0.67
O=C(CSc1nc2cc(Cl)ccc2s1)NCCC12CC3CC(CC(C3)C1)C2,-0.52
Cc1ccc(-n2nc3c(c2NC(=O)c2ccc([N+](=O)[O-])cc2)CSC3)cc1,-0.85
O=[N+]([O-])c1cccc(Nc2c([N+](=O)[O-])ccc3nonc23)c1,0.02
COc1ccc(C2(c3ccc(F)cc3)CCCCC2)cc1,0.01
O=C1CSC(c2ccc(Cl)cc2)N1c1ccc(O)cc1 (stereo unspecified),-0.21
Cc1ccc(-n2nc3c(c2NC(=O)CC(C)C)CS(=O)(=O)C3)c(C)c1,1.3
CC1=C(C(=O)Nc2cccc(C)c2C)C(c2ccc(N(C)C)cc2)NC(=S)N1 (stereo unspecified),-0.42
COc1cc(Cl)c(C)cc1NC(=O)C1c2ccccc2C(=O)N(C)C1c1cn(C)c2ccccc12 (stereo unspecified),1.1
CC(=O)N1c2ccccc2C(=O)C1Cc1ccccc1 (stereo unspecified),-0.44
CCC1CCCCN1S(=O)(=O)c1ccc(C(=O)Nc2nnc(-c3ccccc3OC)o2)cc1 (stereo unspecified),-0.22
O=C(CSCC(=O)NC1CCCC1)Nc1ccccc1,0.88
CCCCn1c(SCc2ccc(C)cc2)nc2c1c(=O)[nH]c(=O)n2C,0.06
CCOC(=O)Cc1c(C)nc2cc(-c3ccc(Cl)cc3)[nH]n2c1=O,-1.5
CCCCN(Cc1ccccc1)S(=O)(=O)c1ccc2c(c1)c(=O)n(C)c(=O)n2C,-1.3
CCC(=O)Nc1ccc(S(=O)(=O)Nc2ccc(Cl)nn2)cc1,-0.26
CCCc1ccc(OCC(=O)Nc2cccc(F)c2)cc1,-1.3
Cc1ccccc1NC(=O)Nc1ccccc1C,0.45
COC(=O)c1c(-c2ccccc2Cl)csc1NC(=O)CCC(=O)O,1.1
CC(C)C1Cc2c(sc3c2c(=O)n(-c2ccccc2)c2nncn32)CO1 (stereo unspecified),1.1
CC1=C(C(=O)OCC(C)C)C(c2cccc([N+](=O)[O-])c2)C2=C(CC(c3cccs3)CC2=O)N1 (stereo unspecified),-0.15
O=C(Cn1c(=O)n(Cc2ccccc2)c(=O)c2ccccc21)NCCc1ccccc1,-0.26
COc1cc(OC)c(OC)cc1C=NCC1COc2ccccc2O1 (stereo unspecified),1.1
CCc1ccc(Nc2sc(C(=O)c3ccc(Cl)cc3)c(N)c2C#N)cc1,-0.48
O=c1c2ccccc2c(=O)c2c1c(O)cc1oc3ccccc3[nH]c12,1.9
Cc1sc2c(c1C)c(=O)n(CCc1ccccc1)c(=O)n2Cc1cccc([N+](=O)[O-])c1,0.27
N#CCCN(CCC#N)S(=O)(=O)c1ccccc1,1.4
O=C(O)CN1CC(=O)N(C2CCCC2)C(c2cccc(F)c2)C1=O (stereo unspecified),-0.86
CCC1CCCCN1C(=O)CCNC(=O)Cn1cnc2ccccc2c1=O (stereo unspecified),-1.4
CC1=C(C(=O)OCc2ccc3c(c2)OCO3)C(c2ccc(O)c([N+](=O)[O-])c2)NC(=O)N1 (stereo unspecified),0.04
Cc1ccc(C2N(Cc3ccccc3)CCN2Cc2ccccc2)s1,0.59
CCOc1ccc(-c2cc(C(=O)NCCC(C)C)c3ccccc3n2)cc1,-0.33
O=C(CCl)Oc1cccc(NC2=NS(=O)(=O)c3ccccc32)c1,-0.6
C=CCN(CC=C)S(=O)(=O)c1ccc(C(=O)Nc2nc3c(s2)CCC3)cc1,0.67
O=C1c2ccc([N+](=O)[O-])cc2C(=O)N1CCc1nc2ccccc2c(=O)o1,1
CCc1cc2c(=O)c(Oc3ccccc3)c(C(F)(F)F)oc2c(CN(C)C)c1O,1.7
CCC12CN3CC(CC)(CN(C1)C31C(=O)Nc3ccccc31)C2=O (stereo unspecified),-0.53
O=C1CCSc2cccc3cccc(c23)N1,0.06
Cc1ccc(-c2nnc(Nc3ccc(C(N)=O)cc3)c3ccccc23)cc1S(N)(=O)=O,-0.93
O=C(Nc1ccccc1C(=O)O)c1ccc(NC(=O)C(F)(F)F)cc1,-0.3
CC(NC(=O)c1cc(=O)[nH]c2ccc(S(=O)(=O)N(C)C3CCCCC3)cc12)c1ccccc1 (stereo unspecified),0.38
CCN(CC)c1ccc(C=CC23NC(=O)CCN2c2ccc(C)cc2C3(C)C)cc1 (stereo unspecified),-1.4
CCS(=O)(=O)Nc1ccc(I)cc1,-1.1
CC1=C(C(=O)OC2CCCC2)C(c2coc3ccc(C)cc3c2=O)C2=C(CC(c3cccs3)CC2=O)N1 (stereo unspecified),2.5
CC(C)OCCCNS(=O)(=O)c1ccc2c(c1)CCN2C(=O)C1CCC1,-0.24
CC(Oc1ccccc1)C(=O)N1CC(=O)Nc2ccc(Br)cc2C1c1ccc(F)cc1 (stereo unspecified),1.1

Another view of some results above:
compound: CCN(CC)c1ccc(C=CC23NC(=O)CCN2c2ccc(C)cc2C3(C)C)cc1 (stereo unspecified)
  Measles inh = -1.4
compound: CCS(=O)(=O)Nc1ccc(I)cc1
  Measles inh = -1.1
compound: CC1=C(C(=O)OC2CCCC2)C(c2coc3ccc(C)cc3c2=O)C2=C(CC(c3cccs3)CC2=O)N1 (stereo unspecified)
  Measles inh = 2.5
compound: CC(C)OCCCNS(=O)(=O)c1ccc2c(c1)CCN2C(=O)C1CCC1
  Measles inh = -0.24

Not all compounds are listed (hit frequency here may not be typical).
